Screens: PubChem BioAssay, National Center for Advancing Translational Sciences (NCATS)
HTT promoter inh: Primary qHTS for Identification of Small Molecule Inhibitors of Huntingtin Promoter Activity. Potency, µM (doses to about 57.5 µM), for the others: top-dose activity change, negative = inhibition, actives largely listed as inhibitors. 0.93% of 48,000 active. HEK293 HTT promoter firefly luciferase reporter (activity 0% = vehicle and -100% = no light), 24 h; active = well fitted inhibition curve with a large enough effect; inconclusive = small, poorly fitted or top-dose-only effect; inactive = no such curve, though single readings can be large or run the other way; also: nearly all actives have a fitted effect of over 50% in size
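Quantitative HTS used concentration series of up to 57.5 uM final on HEK293 luciferase reporter cells, 24 h at 37 degrees C. Readout was Dual-Glo firefly luminescence.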
PMP22 txn: Cell-based coincidence reporter assay to measure PMP22 gene transcription in S16 Pmp22-F2sN cells - Primary screen | S16 Pmp22-F2sN Schwann cells (luciferase reporters placed in the Pmp22 gene), FLuc/NLuc coincidence luminescence, 24 h | Potency, µM (doses to about 57.5 µM), inactives show top-dose activity change, negative = inhibition, most hits filed as inhibitors | 2% of 43,000 active; active = clear falling dose curves in both reporters; inconclusive = both reporters move, but less clearly or upward; inactive = either reporter flat; the % is the NLuc reporter signal; also: % is scaled to controls: 0 for no effect and ±100 for the full control effect; some results filed as inactive show a strong effect at the top dose
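Transcriptional readout in edited S16(c9) cells: two luciferases reported from the Pmp22 locus, measured in turn after 24 h compound incubation.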
Active calls of the source: *; ? = inconclusive; · = not tested or not shown; & = joins results of further samples; [ ] = remark or other dose. Potency is read from the fitted curve at half-maximal effect.

SMILES	HTT promoter inh	PMP22 txn
CC(C)c1ccc(NC(=O)c2cc(S(=O)(=O)N3CCCCC3)cn2C)cc1	-7%	-2%
Cn1c(=O)c2sccc2n2c(CCCC(=O)Nc3ccc(Cl)cc3)nnc12	-1%	-5%
CCN1C(=O)C(Cc2nc3ccccc3c(=O)n2-c2cccc(C)c2)c2ccccc21 (stereo not drawn)	-17%	5%
O=C(CN(c1cc(C(F)(F)F)ccc1Cl)S(=O)(=O)c1ccccc1)NCCc1ccccc1	-8%	?
CN1CCN(c2ncc(-c3cc(Cl)cc(Cl)c3Cl)c(N)n2)CC1	?	·
O=C(Nc1cccc(C(=O)OCc2cc(=O)n3ccsc3n2)c1)c1ccc(F)cc1	4%	-17%
CCc1ccc(NC(=O)c2sc(-n3nc(C)c(Cc4ccc(OC)cc4)c3C)nc2C)cc1	-12%	?
CCOC(=O)c1c(S(=O)(=O)N2CCCC(C(=O)Nc3cccc(CC)c3)C2)c(C)n(CC)c1C (stereo not drawn)	4%	26%
CC(=O)c1ccc(NC(=O)c2cc(C)nc3c2c(C)nn3-c2ccc(C)cc2)cc1	-32%	5%
CCOC(=O)c1c(NC(=O)Cc2coc3cc(C)cc(C)c23)sc2c1CCC2	-6%	-13%
COc1ccccc1N1CCN(C(=O)C2CCCN(S(=O)(=O)c3ccc4c(c3)CCCN4C(C)=O)C2)CC1 (stereo not drawn)	?	?
CN1C(=O)Cc2cc(S(=O)(=O)N3CCN(c4ccccc4F)CC3)ccc21	?	-2%
CC(C)(C)C(=O)Nc1cc(-c2cccc(Br)c2)nn1-c1ccccc1	?	?
COc1cccc(CNC(=O)c2cccc(N3CCCS3(=O)=O)c2)c1	-29%	7%
Cc1ccc(C)c(CN2C(=O)c3ccccc3Sc3ccc(C(=O)NCc4ccco4)cc32)c1	?	4%
CC[C@H]1CN2CCc3cc(OC)c(OC)cc3[C@H]2C[C@@H]1C[C@@H]1NCCc2cc(OC)c(OC)cc21	?	·
CCN(CC)C(=O)Cn1c(=O)n(-c2ccc(Cl)cc2)c(=O)c2c3c(sc21)CCCCC3	-9%	?
Cc1ccc(C(=O)CSc2nnc(-c3ccccc3)n2-c2ccccc2)cc1	-27%	-17%
CCCCN(CC)C(=O)CSc1c2c(nc3ccc(Cl)cc13)CCCC2	-22%	?
CCCCOc1ccc(CNC(=O)c2cc3n(n2)CCCN(Cc2ccc(C)cc2)C3=O)cc1	25µM*	?
Cc1cccc(NC(=O)CN2C(=O)CSc3ccc(S(=O)(=O)N4CCCC4)cc32)c1C	-4%	11%
COc1ccc(-c2nc(C)c(CCNC(=O)c3cccc(C)c3)s2)cc1OC	22%	?
COC(=O)c1sccc1S(=O)(=O)N1CCN(c2cc(Cl)ccc2C)CC1	-19%	-18%
CCC(Cc1ccccc1)NC(=O)c1ccc2nc(N3CCC(C)CC3)sc2c1 (stereo not drawn)	1.3µM*	6%
NC1CCN(c2cccc(Cl)n2)CC1	13%	·

(continued)
SMILES	HTT promoter inh	PMP22 txn
COCCn1c(SCC(=O)c2c(C)[nH]c3ccccc23)nc2cc(C(=O)NC(C)C)ccc2c1=O	-6%	?
COc1ccc(NC(=O)C(NC(=O)C2CCC(C)CC2)C(C)C)cc1 (stereo not drawn)	2%	-60%
CC1CCN(S(=O)(=O)c2ccc3c(c2)oc(=O)n3CC(=O)NCc2ccc(F)cc2)CC1	?	?
COc1ccc(NCc2cc3cc4c(cc3n(CC(=O)Nc3ccc(C)cc3C)c2=O)OCO4)cc1	-21%	-23%
COCCNC(=O)C(=O)NCC(c1ccc2c(c1)OCO2)N1CCOCC1 (stereo not drawn)	-8%	-8%
CCc1ccc(S(=O)(=O)Nc2cc3c(cc2N2CCOCC2)n(C)c(=O)c(=O)n3C)cc1	-3%	0%
Cc1cc(SCC(=O)NCc2ccc(F)cc2)nc(=O)[nH]1	1%	0%
CCOc1ccc(NC(=O)C(C)n2c(=O)cc(-c3ccccc3)c3c(C)nn(C)c32)cc1 (stereo not drawn)	15%	7%
COc1cccc(NC(=O)c2oc3ccccc3c2NC(=O)c2ccccc2C)c1	-21%	5%
Cc1cc2c(cc1S(N)(=O)=O)S(=O)(=O)CCC2	12%	·
COC(=O)c1ccc(Cn2nnc3sc4c(c3c2=O)CCC(C)C4)cc1 (stereo not drawn)	33%[activator]	-2%
Cc1ccc2cccc(NC(=O)C(C)Oc3ccc(C)c(C)c3)c2n1 (stereo not drawn)	-25%	-24%
COc1ccc(CCC(=O)NCCc2csc(-c3ccc(Cl)cc3)n2)cc1	?	-49%
CC1=C(C(=O)OC(C)C)C(c2cccc([N+](=O)[O-])c2)C(C(=O)OC2CN(C(c3ccccc3)c3ccccc3)C2)=C(N)N1 (stereo not drawn)	?	·
COc1ccc(CCC(=O)NC2CC(=O)N(c3cccc(F)c3)C2)cc1 (stereo not drawn)	7%	8%
COc1ccc(-n2ccn(Cc3ccc(C)cc3)c(=O)c2=O)cc1OC	-12%	-17%
COc1cccc(C2C(=O)N(C3CCCCC3)CC(=O)N2Cc2ccc(Cl)cc2)c1 (stereo not drawn)	-20%	-4%
Cc1cc(C)cc(-n2c(SCC(N)=O)nc3c([nH]c4ccccc43)c2=O)c1	-24%	?
CC(=O)c1ccc(N2C(=O)Nc3ccccc3S2(=O)=O)cc1	-9%	-6%
COC(=O)c1cc2occc2n1CC(=O)Nc1ccc(C(C)C)cc1	-12%	-1%
CCOC(=O)CNC(=O)c1ccc(-c2nn(C)c(=O)c3ccccc23)cc1	30%[activator]	-9%
CCCN(CCC)CCNC(=O)c1sc2nc3n(c(=O)c2c1C)CCCCC3	-3%	-14%
CCOC(=O)c1ccc(NS(=O)(=O)c2ccc3c(c2)n(C)c(=O)n3C)cc1	?	-5%
CC1(CN2CCC(n3c(=O)[nH]c4ccccc43)CC2)OCc2ccccc2-n2cccc21 (stereo not drawn)	-28%&-16%	·
O=C(CCn1c(=O)c2ccccc2n(CC(=O)Nc2ccc(F)cc2)c1=O)NCCc1ccccc1	-4%	12%

Three compounds out of the list above, arranged by the number in HTT promoter inh, high to low:
SMILES | HTT promoter inh
CCOc1ccc(NC(=O)C(C)n2c(=O)cc(-c3ccccc3)c3c(C)nn(C)c32)cc1 (stereo not drawn) | 15%
Cc1cc(SCC(=O)NCc2ccc(F)cc2)nc(=O)[nH]1 | 1%
CCc1ccc(S(=O)(=O)Nc2cc3c(cc2N2CCOCC2)n(C)c(=O)c(=O)n3C)cc1 | -3%

Single records, from the list above. Order of screens: HTT promoter inh | PMP22 txn
Results for Cn1c(=O)c2sccc2n2c(CCCC(=O)Nc3ccc(Cl)cc3)nnc12 → -1% | -5%
Results for COc1cccc(C2C(=O)N(C3CCCCC3)CC(=O)N2Cc2ccc(Cl)cc2)c1 (stereo not drawn) → -20% | -4%
Results for CC1=C(C(=O)OC(C)C)C(c2cccc([N+](=O)[O-])c2)C(C(=O)OC2CN(C(c3ccccc3)c3ccccc3)C2)=C(N)N1 (stereo not drawn) → ? | ·
Results for O=C(CN(c1cc(C(F)(F)F)ccc1Cl)S(=O)(=O)c1ccccc1)NCCc1ccccc1 → -8% | ?
Results for Cc1cccc(NC(=O)CN2C(=O)CSc3ccc(S(=O)(=O)N4CCCC4)cc32)c1C → -4% | 11%

Entries from the list above with a furan ring, fused or not, in the order listed:
SMILES	HTT promoter inh	PMP22 txn
CCOC(=O)c1c(NC(=O)Cc2coc3cc(C)cc(C)c23)sc2c1CCC2	-6%	-13%
Cc1ccc(C)c(CN2C(=O)c3ccccc3Sc3ccc(C(=O)NCc4ccco4)cc32)c1	?	4%
COc1cccc(NC(=O)c2oc3ccccc3c2NC(=O)c2ccccc2C)c1	-21%	5%
COC(=O)c1cc2occc2n1CC(=O)Nc1ccc(C(C)C)cc1	-12%	-1%

Continued:
SMILES	HTT promoter inh	PMP22 txn
CCN(CCCNC(=O)c1ccc(Sc2ccc(Cl)cc2)c(NC(C)=O)c1)c1ccccc1	?	-22%
Cc1ccc(C)c(Cn2c(SCC(=O)N(C)Cc3ccccc3)nc3ccccc32)c1	-27%	-44%
COc1ccc(Nc2cc(C)c3cc(NC(=O)Cc4ccc(Cl)cc4)ccc3n2)cc1	?	?
O=C1COc2cc(S(=O)(=O)CCC(=O)NC3CCCCC3)c(Cl)cc2N1	-16%	-32%
CSc1ccc(CCNC(=O)CN2C(=O)COc3ccc(S(=O)(=O)N4CCCC4)cc32)cc1	?	?
CCN(CC)CCCNC(=O)CCCn1ncn2c(cc3occc32)c1=O	-18%	-1%
CN(CC(=O)Nc1cccc(C#N)c1)S(=O)(=O)c1cc2c(cc1Cl)NC(=O)CO2	-22%	-5%
CC(C)OCCCn1c(SCc2ccccc2Cl)nc2c(sc3ccccc32)c1=O	2%	-11%
COCCCNC(=O)c1ccc(NC(=O)N2CCCCc3ccccc32)cc1	-15%	18%
COc1ccc(CNC(=O)C2CCN(S(=O)(=O)c3ccc4c(ccn4C)c3)CC2)cc1	-14%	33%
Cc1cc(C)c(S(=O)(=O)NCCc2sc3nc(-c4ccc(F)cc4)nn3c2C)c(C)c1	?	?
COc1ccc(CNS(=O)(=O)c2cc3c4c(c2)CCN4C(=O)CC3)cc1	-37%	-24%
CN(C)c1ccc(-c2noc(C3CC(=O)N(c4ccc5c(c4)OCCO5)C3)n2)cc1 (stereo not drawn)	-2%	4%
Cc1ccc(NC(=O)Nc2nnc(N(C)Cc3ccccc3)s2)cc1	-1%	-29%
CCOCCCn1c(SCC(=O)Nc2ccc(OC)cc2OC)nc2ccccc2c1=O	-18%	?
CCN1CCN(c2ncc3c(n2)CCN(Cc2ccc(Br)s2)C3)CC1	-21%	?
Cn1ncc2c(NCc3cccc(Cl)c3)ncnc21	-27%	2%
CCOc1ccc(NC(=O)CC2C(=O)N(c3ccc(C)cc3)C(=O)N2Cc2ccc(OC)cc2)cc1 (stereo not drawn)	-23%	-3%
CCCOc1ccc(CNC(=O)c2oc3ccc4c(c3c2C)C(=O)CC(C)(CC)O4)cc1 (stereo not drawn)	?	?
Cc1nn(C(=O)c2cccc(F)c2)c(C)c1S(=O)(=O)N1CCCCCC1	-11%	-29%
Cc1cn(C)c(CC(=O)NCc2ccc(F)cc2)c1C(=O)O	-10%	17%
Cn1nc(-c2ccccc2F)c2cc(C(=O)NCCc3ccc(Cl)cc3)sc21	?	?
O=C(CSc1nc2c([nH]c3ccccc32)c(=O)n1-c1ccc(F)cc1)NCC1CCCO1 (stereo not drawn)	-18%	-18%
Cc1coc2cc3oc(=O)c(CC(=O)N4CCCCC4)c(C)c3cc12	-1%	1%
CCOCCCn1c(=N)c(C(=O)NCc2cccnc2)cc2c(=O)n3cc(C)ccc3nc21	5%	-9%

Further results follow:
SMILES	HTT promoter inh	PMP22 txn
O=C(NCc1ccc(Cl)cc1)C1CCN(S(=O)(=O)c2ccc(F)cc2)CC1	?	-13%
Cc1nn(CCCC(=O)NCc2ccc(OC(C)C)cc2)c(=O)c2c1sc1ccccc12	-2%	-22%
Cc1cc(C)c(NC(=O)c2ccc3nc(C(C)C)oc3c2)c(C)c1	-24%	-15%
CCn1c(CNC(=O)C23CC4CC(CC(C4)C2)C3)nnc1SCC(=O)Nc1ccccc1	-23%	-25%
COc1ccc(NC(=O)CN(C)S(=O)(=O)c2ccc3c(c2)c(=O)n(C)c(=O)n3C)cc1	-14%	-15%
COc1cc(NC(=O)c2cc(-c3cccc(OC)c3)n[nH]2)cc(OC)c1	2%	?
CCN(CCCNC(=O)c1cc2cc3cc(OC)ccc3nc2s1)c1ccccc1	-1%	?
CCc1nn(CC(=O)NCC(C)c2ccccc2)c(=O)c2cc3occc3n12 (stereo not drawn)	1%	-23%
CCSc1nnc2c(n1)OC(c1ccc(OCC(=O)O)cc1)Nc1ccccc1-2 (stereo not drawn)	16%	0%
O=C(CN1C(=O)CCc2cc(S(=O)(=O)N3CCCCC3)ccc21)NCc1ccc(Cl)cc1	?	?
COc1ccc(Cl)cc1NC(=O)c1ncn(-c2ccccc2)n1	-8%	3%
C[C@H]1COC2=C1C(=O)C(=O)c1c2ccc2c1CCCC2(C)C	-11%	·
COc1ccc(Br)c(C(=O)Nc2cc3c(cc2N2CCCCC2)n(C)c(=O)c(=O)n3C)c1	-15%	?
Cc1ccc(-c2cc(C(=O)NCc3cnn(C)c3C)c3ccccc3n2)cc1C	30%[activator]	-39%
Cc1c(CNC2CCCCC2)c(C(=O)O)c(C)n1Cc1ccccc1F	-9%	-7%
COc1ccccc1NC(=O)c1ccc2oc(=O)c(S(=O)(=O)c3ccccc3)cc2c1	-5%	-12%
Cc1cccc(Cn2c(CN3CCC(C(=O)NCc4cccnc4)CC3)cc3ccccc32)c1	5%	?
Cc1cccc(C(C)C)c1NC(=O)C1CCCN1S(=O)(=O)c1cccc2nsnc12 (stereo not drawn)	?	4%
CCC(C)(C)C(=O)O[C@H]1C[C@@H](C)C=C2C=C[C@H](C)[C@H](CC[C@@H]3C[C@@H](O)CC(=O)O3)[C@H]21	9%&17%	·
Cc1ccc(C(=O)c2cn(Cc3cc(C)ccc3C)c3nc(C)ccc3c2=O)cc1	-29%	?
CCOc1ccc(NC(=O)CSc2ccc(-c3sc(-c4ccccc4)nc3C)nn2)cc1	10%	-11%
Cc1nc2ccccc2c(=O)n1-c1ccc(NC(=O)c2ccccc2[N+](=O)[O-])cc1	-1%	-5%
Fc1ccc(Cc2cn3cc(-c4ccc(Cl)cc4)nc3s2)cc1	20%	12%
CCCN(CCC)CCCNC(=O)c1nn(C)c2c1CS(=O)(=O)c1ccccc1-2	-15%	17%
Cc1ccc(-n2nc(CO)c(C(=O)NC(C)c3ccccc3)n2)cc1C (stereo not drawn)	?	-23%
